D2 potentiator: Beta-Arrestin HTS for Positive Allosteric Modulators of the Human D2 Dopamine Receptor: Potentiators; D(2) dopamine receptor (Homo sapiens), P14416; DiscoveRx D2 beta-arrestin cells, luminescence, 90 min; 100% = 57 uM dopamine signal; potentiation, % (test concentration not listed); actives 0.23% (n = 360,000); AID 624464, 2012; active = potentiation of 50% or more; inconclusive = 30% to 50%; inactive = 30% or less;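 also: compound concentration not given in the record; tested on top of an EC20 dose of dopamine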
Target sequence (P14416 whole entry, looked up): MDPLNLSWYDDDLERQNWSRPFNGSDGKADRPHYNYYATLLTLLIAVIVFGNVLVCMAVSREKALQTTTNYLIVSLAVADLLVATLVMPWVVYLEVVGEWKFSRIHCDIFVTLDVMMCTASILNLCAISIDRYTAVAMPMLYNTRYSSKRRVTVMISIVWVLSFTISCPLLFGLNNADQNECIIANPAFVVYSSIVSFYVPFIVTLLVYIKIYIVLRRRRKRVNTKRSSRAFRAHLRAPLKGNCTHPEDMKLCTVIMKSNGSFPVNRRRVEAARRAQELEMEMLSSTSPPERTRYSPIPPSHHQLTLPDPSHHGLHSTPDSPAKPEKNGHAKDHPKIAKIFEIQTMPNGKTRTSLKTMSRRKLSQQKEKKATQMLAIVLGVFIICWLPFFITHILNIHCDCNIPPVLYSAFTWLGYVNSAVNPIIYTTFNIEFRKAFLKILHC
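PathHunter beta-arrestin assay in DiscoveRx D2 cells. Compounds were added with an EC20 of dopamine (50 nM final) for 90 min at 37 deg C. Luminescence was read 1 h after detection reagent, with 57 uM dopamine as the EC100 control.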
CtBP-E1A blk: qHTS Assay for Inhibitors of the CtBP/E1A Interaction | activity change, % (test concentration not listed) | AlphaScreen GST-E1A/His-CtBP binding, 1536-well; hits give low values; control for the full effect not named in the record | actives 0.49% (n = 340,000); in the data active means activity change below about -65%; inconclusive means about -30% to -65%; inactive means above about -30%; also: % is scaled to controls: 0 for no effect and ±100 for the full control effect; compound concentration not given in the record
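Homogeneous bead-based format: GST-tagged E1A captured on glutathione donor beads, His-tagged CtBP on nickel acceptor beads; compounds precede bead addition by 2 h at 37 °C.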
gsp ag: qHTS for Agonist of gsp, the Etiologic Mutation Responsible for Fibrous Dysplasia/McCune-Albright Syndrome: qHTS. gsp mutant cells, cAMP HTRF, 30 min; control for the full effect not named in the record. Potency, µM (titrated, usually from 76.9 µM), inactives show at the highest dose activation (cAMP increase), actives largely listed as activators. actives 0.13% (n = 340,000). AID 624287, 2012; active = well fitted activation curve with a large enough effect; inconclusive = small, poorly fitted or top-dose-only effect, or another doubt; inactive = no such curve, though single readings can be large or run the other way; cell line not stated here;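 also: phosphodiesterase inhibitor Ro 20-1724 added with compounds to block cAMP breakdown; potency is read from the fitted curve at half-maximal effect; nearly all actives have a fitted effect of over 60% in size; about a fifth of the inactives were tested at one dose only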
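Cells in DMEM/10% FBS with G418 were pretreated with compounds in DMSO plus […] (300 uM stock) for 30 min at 37C. cAMP was measured by HTRF (cAMP-d2 plus anti-cAMP antibody-K) after 30 min at room temperature.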
gsp antagonist: qHTS for Antagonists of gsp, the Etiologic Mutation Responsible for Fibrous Dysplasia/McCune-Albright Syndrome: qHTS | actives 0.4% (n = 340,000) | gsp-mutant cells, cAMP HTRF, 30 min; control for the full effect not named in the record | Potency, µM (highest dose often 76.9 µM), without a hit: at the top dose activity change, negative = inhibition, usual class: inhibitors; active = falling curve of any shape with a large fitted effect; inconclusive = falling curve, mostly with a smaller effect; inactive = flat or rising curve; cell line not stated here;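 also: intracellular cAMP measured with PDE inhibitor Ro 20-1724 present during compound exposure; potency is read from the fitted curve at half-maximal effect; % is scaled to controls: 0 for no effect and ±100 for the full control effect; nearly all actives have a fitted effect of over 65% in size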
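Cells, 2000/well, grown 16–24 h in DMEM 10% FBS with 0.5 mg/ml G418, then compounds plus […] (300 uM addition stock), 30 min at 37C. cAMP read by HTRF (cAMP-d2 and anti-cAMP antibody-K in lysis buffer) after 30 min RT.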
Six1-Eya2 blk: qHTS Assay for Inhibitors of the Six1/Eya2 Interaction. Homeobox protein SIX1 (Homo sapiens) + Protein phosphatase EYA2 (Homo sapiens), …. AlphaScreen GST-Six1/His-Eya2 binding, biochemical; hits give low values; control for the full effect not named in the record. activity change, % (concentration not given with the values). actives 0.56% (n = 360,000); in the data active = activity change below about -65%; inconclusive = about -30% to -65%; inactive = above about -30%; also: % is scaled to controls: 0 for no effect and ±100 for the full control effect
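AlphaScreen with GST-Six1 and His-Eya2 (5X mix: 250 nM and 500 nM), glutathione donor and nickel acceptor beads; buffer 50 mM Tris pH 8.0, 300 mM NaCl, 1 mM TCEP; 1 h at 37 C in the dark.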
D2 agonist: Beta-Arrestin HTS for Positive Allosteric Modulators of the Human D2 Dopamine Receptor: Agonists. D(2) dopamine receptor (Homo sapiens), P14416. DiscoveRx PathHunter D2 beta-arrestin, luminescence, 90 min; 100% = 57 uM dopamine signal. activation, % (concentration not given with the values). actives 0.084% (n = 360,000). AID 624465, 2012; in the data active = activation above about 40%; inconclusive = about 15% to 40%; inactive = below about 15%; also: compound concentration not given in the record; the text of the record calls up to 30% inactive
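DiscoveRx PathHunter D2 beta-arrestin cells (2,100/well) attached overnight, then compound-stimulated 90 min at 37 C in HBSS/10 mM HEPES/0.1% Tween-20 buffer; beta-galactosidase complementation read by luminescence after 1 h at ambient temperature. Dopamine 57 uM final (EC100) as control.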
Active calls of the source: *; ? = inconclusive; / = no result given; [ ] = remark or other dose. The list is partial, so the mix of outcomes need not match the whole.

No. | SMILES | D2 potentiator | CtBP-E1A blk | gsp ag
1 | O=C(CSC1c2ccccc2-c2ccccc21)N/N=C/c1ccc(C(=O)O)cc1 | 5 | 4 | 6%
2 | O=C(Nc1ccc(OC(F)(F)F)cc1)Oc1ccccc1N1CCCCC1 | 7 | / | 6%
3 | C=C(COC(C)=O)CC1CC(O)[C@]2(C)OC3CC4OC5C[C@]6(C)O[C@]7(C)CCC8OC9C[C@]%10(C)OC%11C(C)=CC(=O)OC%11CC%10OC9C[C@@H](C)C8OC7CC6O[C@]5(C)C/C=C\C4OC3CC2O1 (some centres undefined) | 3 | 2 | /
4 | COc1cccc(NC(=O)N2CCC3(CC2)OCCO3)c1 | 4 | 15 | -1%[15.4 µM]
5 | CC(=O)N1CCC2(CC1)CC(=O)c1cc(OCC(=O)N3CCN(C)CC3)ccc1O2 | -5 | 0 | ?
6 | CC1(C)CC(=O)CC(C)(C)N1O | 4 | 1 | 3%
7 | COC(=O)C1=C(c2ccc(Cl)c(C(F)(F)F)c2)C[C@@H]2CC[C@H]1N2C(=O)N1CCC(C)CC1 | -8 | / | 0%
8 | O=c1cccc2n1CC1CC2CN(Cc2ccc3c(c2)OCO3)C1 (centres undefined) | -1 | 59 | -29%
9 | CN1CCN(CC(=O)Nc2ccc(Cl)cc2C(=O)c2ccccc2)CC1 | -16 | -1 | ?
10 | COc1ccc(CC(=O)N2CCN(C)CC2)cc1 | -4 | -15 | 12%
11 | N=C1c2ccccc2CN1c1ccc(F)c([N+](=O)[O-])c1 | 2 | 4 | -14%[15.4 µM]
12 | CC(C)CC1(CCc2ccccc2)C(=O)NC(=O)NC1=O | 3 | 10 | -41%[inhibitor]
13 | O=C(c1ccc(Cl)cc1)C12CN3CN(CN(C3)C1)C2 | -2 | 5 | -32%[inhibitor]
14 | COc1ccc(Cn2c(O)c(C=NCCCn3ccnc3)c(=O)[nH]c2=O)cc1 | 0 | 12 | -52%[inhibitor]
15 | CCC(=Nc1ccccc1N)c1c(O)[nH]c(=O)[nH]c1=O | -5 | -2 | 24%[15.4 µM]

No. | gsp antagonist | Six1-Eya2 blk | D2 agonist
1 | -8% | -2 | 5.5
2 | 7% | 3 | 4.3
3 | 2% | -4 | 1.2
4 | -3% | 5 | 4.1
5 | 12% | -3 | -0.9
6 | / | -1 | -3.0
7 | -7% | 12 | -1.8
8 | -16% | 18 | 1.2
9 | 3% | -6 | -2.4
10 | 3% | -3 | -2.9
11 | -1% | -5 | -0.7
12 | 5% | -3 | 1.8
13 | 3% | 0 | -3.9
14 | 7% | -2 | 2.4
15 | -20% | 2 | -1.4

Values by screen from the entries so far:
Entries 8–15 in D2 agonist: 1.2, -2.4, -2.9, -0.7, 1.8, -3.9, 2.4, -1.4
Entries 8–15 in gsp antagonist: -16%, 3%, 3%, -1%, 5%, 3%, 7%, -20%

Further structures:
No. | SMILES | D2 potentiator | CtBP-E1A blk | gsp ag
16 | Cc1c(C=O)c2ccccc2n1Cc1ccc([N+](=O)[O-])cc1 | -8 | -8 | -9%
17 | CC(C)c1cccc(C(C)C)c1OCCn1ccnc1 | -19 | 0 | 3%
18 | Cc1cccc(CS(=O)(=O)Cc2ccc(C(=O)N3CCC4(CC3)OCCO4)o2)c1 | 16 | 1 | 0%
19 | O=C(O)CC1OCC=C2CN3CCC45c6ccccc6NC4C1C2CC35 (centres undefined) | -8 | / | -28%
20 | c1ccc(-c2ccncc2)cc1 | -2 | -1 | 5%
21 | CCOc1ccc(-n2c(O)c(C=NCCN(CC)CC)c(=O)[nH]c2=O)cc1 | -1 | -6 | 12%
22 | COc1ccc(-n2c(=O)[nH]c3ccccc3c2=O)cc1 | 3 | 3 | 3%
23 | COc1ccc(NC(=O)N2CCC3(CC2)OCCO3)cc1OC | -4 | -22 | -4%[15.4 µM]
24 | CCC(C)n1c(O)c(C(c2ccccn2)c2c(O)n(C(C)CC)c(=S)[nH]c2=O)c(=O)[nH]c1=S (centres undefined) | -4 | -14 | -14%
25 | Cn1c(O)c(C(c2ccccn2)c2c(O)n(C)c(=S)n(C)c2=O)c(=O)n(C)c1=S | -2 | -29 | 27%
26 | O=C1CN=C(c2ccc(Cl)cc2)c2oc3ccccc3c2N1 | -7 | 2 | 16%[15.4 µM]
27 | CN1C(=O)CCC2(C)C1=CCC1C2CCC2(C)C1CCC2(C)O (centres undefined) | -6 | 11 | ?
28 | O=C(COc1ccc2ccc(=O)oc2c1)N1C[C@H]2C[C@@H](C1)c1cccc(=O)n1C2 | -8 | -2 | /
29 | O=P(O)(O)CN1CCNCCN(CP(=O)(O)O)CCNCC1 | ? | 7 | -8%
30 | C[n+]1ccc(-c2ccccc2)c2ccccc21 | -7 | 0 | /

No. | gsp antagonist | Six1-Eya2 blk | D2 agonist
16 | -13% | -8 | 0.3
17 | -1% | 20 | 5.3
18 | -6% | 5 | -3.5
19 | 4% | 5 | -2.2
20 | 5% | -1 | -1.9
21 | 9% | 5 | 0.9
22 | -5% | 0 | -6.0
23 | 4% | -9 | -5.2
24 | -3% | -14 | -0.1
25 | 0% | ? | -1.0
26 | 5% | 21 | 0.5
27 | 7% | 3 | 2.3
28 | 3% | -2 | 5.2
29 | 18% | -12 | ?
30 | 5% | 0 | -4.2

Compound profiles, as listed above:
Listed for COc1ccc(-n2c(=O)[nH]c3ccccc3c2=O)cc1 : D2 potentiator: 3; CtBP-E1A blk: 3; gsp ag: 3%; gsp antagonist: -5%; Six1-Eya2 blk: 0; D2 agonist: -6.0
Listed for CC(C)c1cccc(C(C)C)c1OCCn1ccnc1 : D2 potentiator: -19; CtBP-E1A blk: 0; gsp ag: 3%; gsp antagonist: -1%; Six1-Eya2 blk: 20; D2 agonist: 5.3

Continuation:
No. | SMILES | D2 potentiator | CtBP-E1A blk | gsp ag
31 | Cn1c(SCC(=O)NCc2ccc(F)cc2)nc2ccccc21 | -18 | 6 | -17%
32 | Cc1ccc(N2C(=O)NC(=O)/C(=C\c3cnc(-c4ccccc4)nc3)C2=O)cc1 | -6 | 5 | -40%[inhibitor]
33 | O=C(COc1ccc(Br)cc1)N1CCN(C2CCCC2)CC1 | -21 | 0 | -31%[inhibitor]
34 | Cc1nc2ccc(Cl)cc2c(=O)n1-c1ccccc1Cl | -7 | -2 | 0%[15.4 µM]
35 | CNC(=O)ON(C(=O)NC)C1N(C)C(=S)SC1(C)C (centres undefined) | -2 | 47 | 21%
36 | C[C@]12CCC3[C@@H](CCC4=CC(=O)CC[C@@]43CO)C1CCC2=O (some centres undefined) | -4 | / | -11%
37 | COC(=O)C(O)(c1c(C)[nH]c2ccccc12)C(F)(F)F (centres undefined) | 1 | 14 | 30%
38 | Cc1c(C)c2ccc(OCC(=O)N3CCC(C(=O)O)(c4ccccc4)CC3)c(C)c2oc1=O | 19 | -7 | /
39 | CCOc1ccc(S(=O)(=O)NCc2ccc3c(c2)OCO3)cc1C | 1 | 10 | 6%
40 | Clc1ccc(COC(Cn2ccnc2)c2ccc(Cl)cc2Cl)cc1 (centres undefined) | -11 | -12 | /
41 | CC(C)CCn1c(=O)c(C(=O)Nc2ccccc2S(N)(=O)=O)c(O)c2ccccc21 | 4 | -11 | -1%
42 | N/C(=N\[N+](=O)[O-])NCCCC(NC(=O)CNC(=O)c1ccccc1)C(=O)O (centres undefined) | -6 | 0 | 1%[15.4 µM]
43 | CC(=NCc1cccnc1)c1c(O)n(-c2ccc(C)cc2)c(=O)[nH]c1=O | -10 | -2 | -33%[inhibitor]
44 | Cc1ccc(Cn2cc(C=O)c(-c3ccc(C)cc3)n2)cc1 | 1 | 9 | 22%
45 | Cc1ccc(OCC(=O)N2CCN(CC3CC4C=CC3C4)CC2)cc1 (centres undefined) | -36 | -3 | -2%

No. | gsp antagonist | Six1-Eya2 blk | D2 agonist
31 | -5% | 0 | -4.3
32 | -1% | 16 | -2.0
33 | 7% | 10 | 0.2
34 | 4% | -6 | -5.3
35 | 4% | 22 | -1.2
36 | 4% | 14 | -1.9
37 | 4% | 1 | -1.7
38 | -3% | -11 | 7.6
39 | -3% | 0 | -2.4
40 | -29% | 0 | 11
41 | -24% | 0 | 1.8
42 | -7% | 6 | 1.4
43 | -6% | 0 | -0.3
44 | -2% | 8 | 1.7
45 | -1% | -4 | -4.6

(more compounds)
No. | SMILES | D2 potentiator | CtBP-E1A blk | gsp ag
46 | Cc1cccc(C)c1-n1nnnc1C(c1cc2ccccc2o1)N1CCC(n2c(=O)[nH]c3ccccc32)CC1 (centres undefined) | 8 | -9 | /
47 | COc1ccc(CN2CCCC(C(=O)c3ccc(Cl)cc3)C2)c(O)c1 (centres undefined) | -78 | / | ?
48 | C=CCn1c(O)c(C(C)=NCC2CCCO2)c(=O)[nH]c1=O (centres undefined) | -12 | -3 | 16%[15.4 µM]
49 | CCC(C)N1C(=O)NC(=O)C2(Cc3cc(C)ccc3N(C)C2)C1=O (centres undefined) | -6 | 1 | -38%[inhibitor]
50 | O=C(/C=C/c1ccccc1)C1C(=O)c2ccccc2C1=O | -29 | 5 | -35%[inhibitor]
51 | Cc1cc(C(=O)C[N+]23CCN(CC2)CC3)c(C)n1-c1ccc(Br)cc1 | -6 | -6 | -2%[15.4 µM]
52 | O=C(c1cc(-c2cccnc2)nc2ccc(Cl)cc12)N1CCC2(CC1)OCCO2 | 1 | -2 | 21%
53 | CCCCn1nc(C)c(C(=O)O)c1Cl | -6 | -2 | -1%
54 | CCOC(=O)c1cccc(NC2c3ccccc3C(=O)N2Cc2ccco2)c1 (centres undefined) | -6 | -1 | -35%[inhibitor]
55 | CC(=O)c1cn(Cc2ccccc2C#N)c2ccccc12 | -2 | 1 | 0%[15.4 µM]
56 | C[C@]12CC[C@H](O)CC1C(=O)CC1C2CC[C@@]2(C)C1CC[C@@H]2O (some centres undefined) | -14 | 6 | 10%
57 | Cc1nnc(SCc2nc3ccccc3c(=O)n2-c2ccccc2Cl)n1N | -15 | -4 | 5%
58 | O=C1NC(=O)C(Cc2ccccc2)C(=O)N1 | -6 | -7 | -8%
59 | CN1CCCC1C(O)(c1ccccc1)c1ccccc1 (centres undefined) | -11 | 16 | -9%

No. | gsp antagonist | Six1-Eya2 blk | D2 agonist
46 | / | -21 | 7.0
47 | -4% | 2 | -3.8
48 | -1% | 0 | 0.4
49 | -13% | -1 | -0.7
50 | 2% | 3 | -0.7
51 | 13% | -17 | -3.7
52 | -2% | 17 | -2.3
53 | 2% | 3 | -1.7
54 | ? | 2 | -4.7
55 | -15% | 2 | -4.4
56 | 8% | 7 | -2.7
57 | -10% | 1 | 0.5
58 | 4% | -8 | -4.2
59 | 4% | 3 | 0.2

Assay outcomes from PubChem.
